High-throughput results from PubChem BioAssay.
ALR inh: inhibitors of human ALR sulfhydryl oxidase, primary screen, biochemical, H2O2 detection, HRP-luminol luminescence, single point; FAD-linked sulfhydryl oxidase ALR (Homo sapiens), P55789; purified ALR, DTT oxidation; inhibition, % (test concentration not listed); 290,000 compounds, 3.8% hits;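 active = mean and each replicate at 75% or more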;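 note: stock transfer was 7.5 nL into about 7.5 µL; 0% = neutral wells and 100% = wells with inactivated enzyme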
Target sequence (P55789 whole entry, looked up): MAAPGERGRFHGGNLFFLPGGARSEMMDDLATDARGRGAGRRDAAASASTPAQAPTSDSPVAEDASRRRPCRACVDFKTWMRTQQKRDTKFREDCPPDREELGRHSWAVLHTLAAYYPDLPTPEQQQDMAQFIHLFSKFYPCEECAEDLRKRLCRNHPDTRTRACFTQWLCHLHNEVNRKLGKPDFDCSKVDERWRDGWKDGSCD
UCH37 DUB inh: inhibitors of human UCH37 deubiquitinase, primary screen, biochemical, Ub-AMC cleavage, fluorescence; Ubiquitin carboxyl-terminal hydrolase isozyme L5 (Homo sapiens), Q9Y5K5; purified proteasome/UCH37; inhibition, % (no concentration beside the values); 330,000 compounds, 0.33% hits; AID 588478, 2011;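 active = mean of two replicates above 20%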;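 note: 0% = compound-free wells with enzyme and 100% = wells lacking proteasome; stock transfer was 100 nL into about 20 µL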
Target sequence (Q9Y5K5 whole entry, looked up): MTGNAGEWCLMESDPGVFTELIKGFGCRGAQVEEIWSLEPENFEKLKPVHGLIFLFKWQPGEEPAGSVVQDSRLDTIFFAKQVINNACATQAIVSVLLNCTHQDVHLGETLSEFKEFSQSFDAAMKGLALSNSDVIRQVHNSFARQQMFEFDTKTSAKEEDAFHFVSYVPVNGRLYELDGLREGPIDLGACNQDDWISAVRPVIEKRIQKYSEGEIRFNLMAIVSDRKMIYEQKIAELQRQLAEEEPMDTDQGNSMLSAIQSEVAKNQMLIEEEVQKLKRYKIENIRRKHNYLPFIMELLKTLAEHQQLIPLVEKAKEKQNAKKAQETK
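system = Proteasome-associated human UCH37 deubiquitinase | amount = 0.15 nM proteasome as dispensed | medium = pH 7.4 Tris-HCl (50 mM) with ovalbumin, ATP-MgCl2, DTT | incubation = 30 min preincubation with enzyme, 25 min cleavage at room temperature | detection = AMC fluorescence 355/460 nm | read-out basis = percent inhibition | controls = no-proteasome and no-compound wells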
rRNA inh HTS: reduced GFP signal of wild-type E. coli, primary screen, bacterial rRNA inhibitor project, GFP/RFP fluorescence, OD600, single point | GFP signal change (wild-type ribosome), % (no concentration beside the values) | 350,000 compounds, 1.6% hits | AID 720706, 2013 | E. coli WT GFP vs humanized-ribosome RFP mutants, 24 h; stronger effect = lower value; DMSO median 0, no signal -100;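 active = significant combined selectivity score with lowered wild-type GFP, culture density cut under 30%, mutant RFP and density less affected; inactive = any of these conditions unmet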; note: one replicate is shown; some compounds called inactive have numbers as strong as hits
Beta2AR agonist: beta2AR agonists driving receptor internalization, primary screen, cell-based, FAP fluorogen, flow cytometry. Beta-2 adrenergic receptor (Homo sapiens), P07550. Am2.2-beta2AR cells; reference of the scale not given here. response, % (test concentration not listed). 340,000 compounds, 0.43% hits. AID 504454, 2011;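 active = response above a set limit, near 3 SD of response in nonfluorescent compounds, cut at about 42% in these data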;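 note: stock transfer was 100 nL into about 11 µL; a reference agonist was the positive control; negative values mostly stem from fluorescent compounds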
HNF4A DNA FP: change in binding of human HNF4A to DNA, primary screen, biochemical, fluorescence polarization, FITC-DNA; 1 h; 360,000 compounds, 0.3% hits; activity change, % at 10 µM; AID 1224865, 2016; Hepatocyte nuclear factor 4-alpha (Homo sapiens), P41235; in the data active = activity change above about 30%, passing the limit was not always enough;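 note: controls were the assay level and a saturating level of protein; the project sought stronger binding though the title names inhibitors; some compounds called inactive have numbers as strong as hits; positive values seem to mean higher polarization but the record does not say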
Target sequence (P41235 whole entry, looked up): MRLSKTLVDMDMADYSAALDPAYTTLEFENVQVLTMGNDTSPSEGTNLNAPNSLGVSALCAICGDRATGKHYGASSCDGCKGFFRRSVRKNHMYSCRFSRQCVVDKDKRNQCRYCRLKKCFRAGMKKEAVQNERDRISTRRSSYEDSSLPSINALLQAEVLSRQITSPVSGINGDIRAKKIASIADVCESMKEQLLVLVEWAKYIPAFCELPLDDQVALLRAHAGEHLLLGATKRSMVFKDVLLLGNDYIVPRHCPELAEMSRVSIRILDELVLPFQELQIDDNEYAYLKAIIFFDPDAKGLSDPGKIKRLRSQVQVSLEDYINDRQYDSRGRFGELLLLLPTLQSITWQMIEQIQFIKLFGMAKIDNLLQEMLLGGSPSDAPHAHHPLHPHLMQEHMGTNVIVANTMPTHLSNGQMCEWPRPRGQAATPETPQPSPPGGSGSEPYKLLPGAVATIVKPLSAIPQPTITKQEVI
FGF22 binding: binders of human FGF22 protein, primary screen, FGF22 synaptogenesis inhibitor project, biophysical, thermal shift, single point. recombinant FGF22 thermal shift, SYPRO orange fluorescence; percent of sucrose octasulfate shift, DMSO zero. Fibroblast growth factor 22 (Homo sapiens), Q9HCT0. 340,000 compounds, 1.5% hits. calls only at 9.99 µM;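 active = melting point raised past a set limit in the mean and every replicate; three in four hits are not shown here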
Ecoli growth: E. coli growth inhibition, primary screen, OD600; 330,000 compounds, 0.21% hits; Escherichia coli growth, 23 h; stronger effect = lower value; OD600 absorbance (no concentration beside the values); AID 1053175, 2014;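 active = OD600 absorbance below the run mean of sample wells minus 3.6 SD, in any replicate, cut at about 0.56 in these data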;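 note: stock transfer was 300 nL into about 60 µL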
rRNA inh HTS OD600: second read-out of rRNA inh HTS, no call of its own (marks repeat the call); OD600 change, %; measured here: OD600 growth;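 optical density of the mix in the first replicate; 0 = DMSO median and -100 = no signal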
rRNA inh HTS RFP: also measured in rRNA inh HTS; calls as there; RFP signal change, %; measured here: RFP humanized mutant strains;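 first replicate; 0 = DMSO median and -100 = no signal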
* hit, by the source's call. A portion of the library, so the mix of outcomes need not match the whole.

Results for COC(=O)CSc1nnc(-c2ccc(S(=O)(=O)NCc3ccccc3Cl)cc2)o1 ?
ALR inh: 6; UCH37 DUB inh: 6.3; Beta2AR agonist: 4; HNF4A DNA FP: 1.4; Ecoli growth: 0.71

Results for O=C(CN1CC(=O)Oc2ccccc21)OCC(=O)c1ccc(F)cc1 ?
UCH37 DUB inh: -0.6; rRNA inh HTS: 13; Beta2AR agonist: 3; HNF4A DNA FP: 5.5; FGF22 binding: inactive; Ecoli growth: 0.71; rRNA inh HTS OD600: 9; rRNA inh HTS RFP: 2.8

How did Cc1nn(Cc2ccc(F)cc2)c(Cl)c1/C=N/NC(=O)c1cccnc1 do in these assays?
ALR inh: 12; rRNA inh HTS: 7; Beta2AR agonist: 0; HNF4A DNA FP: -0.2; FGF22 binding: inactive; rRNA inh HTS OD600: 0; rRNA inh HTS RFP: 1.5

How did Cc1ccc(Cn2nc(C)c(NC(=O)c3cc(-c4ccco4)on3)c2C)cc1 do in these assays?
ALR inh: -2; UCH37 DUB inh: 0.6; rRNA inh HTS: -4; Beta2AR agonist: 6; HNF4A DNA FP: 2.0; FGF22 binding: inactive; Ecoli growth: 0.66; rRNA inh HTS OD600: 18; rRNA inh HTS RFP: 5.6

What do the screens show for `CCN(CC(=O)Nc1c(F)cccc1F)C(=O)c1ccc2c(c1)S(=O)(=O)N=C1CCCCCN12`?
ALR inh: 6; UCH37 DUB inh: 2.9; rRNA inh HTS: 8; Beta2AR agonist: -12; HNF4A DNA FP: 2.5; FGF22 binding: inactive; Ecoli growth: 0.71; rRNA inh HTS OD600: 8; rRNA inh HTS RFP: -3.2

How did Cc1cc(=O)[nH]c(SCC(=O)N(CCC#N)c2ccccc2)c1C#N do in these assays?
ALR inh: 2; UCH37 DUB inh: 3.9; rRNA inh HTS: 6; Beta2AR agonist: -1; HNF4A DNA FP: -3.6; FGF22 binding: inactive; Ecoli growth: 0.71; rRNA inh HTS OD600: -6; rRNA inh HTS RFP: -3.9

How did Cc1ccc2c(CN3CCOCC3)cc(=O)oc2c1C do in these assays?
ALR inh: -4; UCH37 DUB inh: -0.4; rRNA inh HTS: 5; Beta2AR agonist: 5; HNF4A DNA FP: -3.0; FGF22 binding: inactive; Ecoli growth: 0.66; rRNA inh HTS OD600: 5; rRNA inh HTS RFP: 6.3

Results for CCCc1cc(=O)oc2c3c(c4c(c12)OC(C)(C)C=C4)OC(C)C(C)C3O (stereo unspecified) ?
ALR inh: -1; Beta2AR agonist: 1; HNF4A DNA FP: -0.5; FGF22 binding: inactive

Results for CSc1ccccc1NC(=O)CN(C)C(=O)Cc1c[nH]c2ccccc12 ?
ALR inh: -11; rRNA inh HTS: 1; Beta2AR agonist: 5; HNF4A DNA FP: 2.6; rRNA inh HTS OD600: -1; rRNA inh HTS RFP: -2.1

How did Cn1cc(Br)c(C(=O)n2cc(Br)cn2)n1 do in these assays?
ALR inh: 2; UCH37 DUB inh: 2.3; rRNA inh HTS: 16; Beta2AR agonist: 7; HNF4A DNA FP: 1.2; Ecoli growth: 0.65; rRNA inh HTS OD600: 17; rRNA inh HTS RFP: 1.8

Results for O=[N+]([O-])c1ccc(CN2CCN(Cc3c[nH]c4ccccc34)CC2)cc1 ?
ALR inh: -7; UCH37 DUB inh: 5.3; rRNA inh HTS: -2; Beta2AR agonist: -1; HNF4A DNA FP: -1.8; FGF22 binding: inactive; Ecoli growth: 0.67; rRNA inh HTS OD600: 5; rRNA inh HTS RFP: 2.3

How did C=CCC[C@@H](Cc1ccc(F)cc1)C(=O)OC[C@@H](C)NC(=O)[C@@H](CC=C)CC(=O)N[C@H](CO)Cc1ccccc1 do in these assays?
ALR inh: 2; UCH37 DUB inh: 1.7; rRNA inh HTS: -12; Beta2AR agonist: 3; HNF4A DNA FP: -1.3; FGF22 binding: active; rRNA inh HTS OD600: -8; rRNA inh HTS RFP: 5.3

How did CSc1cccc(NC(=O)Nc2ccccc2C(N)=O)c1 do in these assays?
ALR inh: 91*; UCH37 DUB inh: -27; rRNA inh HTS: -1; Beta2AR agonist: -8; HNF4A DNA FP: -2.9; FGF22 binding: inactive; Ecoli growth: 0.67; rRNA inh HTS OD600: 1; rRNA inh HTS RFP: -1.5

How did CN1CCN(CC(=O)Nc2ccc(S(=O)(=O)N(C)C)cc2)CC1 do in these assays?
ALR inh: 4; UCH37 DUB inh: 1.5; rRNA inh HTS: 13; Beta2AR agonist: -5; HNF4A DNA FP: 2.2; FGF22 binding: inactive; Ecoli growth: 0.7; rRNA inh HTS OD600: 19; rRNA inh HTS RFP: -2.3

What do the screens show for `O=C(CSc1ncn[nH]1)Nc1ccnc2ccccc12`?
ALR inh: 25; UCH37 DUB inh: 6.6; rRNA inh HTS: 7; Beta2AR agonist: 0; HNF4A DNA FP: -4.9; FGF22 binding: inactive; Ecoli growth: 0.68; rRNA inh HTS OD600: -3; rRNA inh HTS RFP: -0.9

How did O=C(COC(=O)Cn1cnc2ccccc21)Nc1cccc2c1C(=O)c1ccccc1C2=O do in these assays?
ALR inh: -3; UCH37 DUB inh: 5.0; rRNA inh HTS: -1; Beta2AR agonist: 14; HNF4A DNA FP: -10; FGF22 binding: inactive; Ecoli growth: 0.73; rRNA inh HTS OD600: -16; rRNA inh HTS RFP: -5.3

What do the screens show for `COc1ccc(CNC(=O)Nc2ccc(C)c(C)c2)cc1`?
ALR inh: -1; UCH37 DUB inh: 1.7; rRNA inh HTS: 6; Beta2AR agonist: 8; HNF4A DNA FP: 4.0; FGF22 binding: inactive; Ecoli growth: 0.66; rRNA inh HTS OD600: 10; rRNA inh HTS RFP: 0.9

Results for CCSc1cc(N2CC(C)OC(C)C2)nc(-c2ccccc2Cl)n1 (stereo unspecified) ?
ALR inh: -6; UCH37 DUB inh: -1.6; Beta2AR agonist: -3; HNF4A DNA FP: 0.1; Ecoli growth: 0.71

What do the screens show for `COCCCNC(=O)CSc1nc2ccccc2c(=O)n1CCCC(=O)NCC1CCCO1` (stereo unspecified)?
ALR inh: -5; Beta2AR agonist: 1; HNF4A DNA FP: 19

Results for O=C(CN1CCN(Cc2ccccc2)CC1)Nc1ccc(F)c(F)c1 ?
ALR inh: -13; UCH37 DUB inh: -2.0; rRNA inh HTS: 16; Beta2AR agonist: -6; HNF4A DNA FP: 0.4; FGF22 binding: inactive; Ecoli growth: 0.7; rRNA inh HTS OD600: 10; rRNA inh HTS RFP: 4.1

The last 2 entries of the part above lead into the next.
What do the screens show for `COCCCNC(=O)CSc1nc2ccccc2c(=O)n1CCCC(=O)NCC1CCCO1` (stereo unspecified)?
ALR inh: -5; Beta2AR agonist: 1; HNF4A DNA FP: 19

Results for O=C(CN1CCN(Cc2ccccc2)CC1)Nc1ccc(F)c(F)c1 ?
ALR inh: -13; UCH37 DUB inh: -2.0; rRNA inh HTS: 16; Beta2AR agonist: -6; HNF4A DNA FP: 0.4; FGF22 binding: inactive; Ecoli growth: 0.7; rRNA inh HTS OD600: 10; rRNA inh HTS RFP: 4.1

How did CCOC(=O)c1cnc2c(OC)cccc2c1Oc1ccccc1 do in these assays?
ALR inh: 5; UCH37 DUB inh: -20; rRNA inh HTS: -5; Beta2AR agonist: 4; HNF4A DNA FP: 6.5; FGF22 binding: inactive; Ecoli growth: 0.68; rRNA inh HTS OD600: 0; rRNA inh HTS RFP: -0.3

Results for Cc1cc(C)cc(NS(=O)(=O)c2ccc3[nH]c(=O)ccc3c2)c1 ?
ALR inh: -7; UCH37 DUB inh: 2.6; rRNA inh HTS: -12; Beta2AR agonist: -3; HNF4A DNA FP: 1.9; FGF22 binding: inactive; Ecoli growth: 0.69; rRNA inh HTS OD600: -12; rRNA inh HTS RFP: 3.5

Results for Cc1occc1C(=O)Nc1cc(C(F)(F)F)ccc1Cl ?
UCH37 DUB inh: 2.0; Beta2AR agonist: -3; HNF4A DNA FP: 0.5; Ecoli growth: 0.71

What do the screens show for `CN1/C(=C\C(=O)COC(=O)c2ccc(O)cc2)C(C)(C)c2ccccc21`?
ALR inh: -15; UCH37 DUB inh: -14; rRNA inh HTS: -34; Beta2AR agonist: -26; HNF4A DNA FP: 13; FGF22 binding: inactive; Ecoli growth: 0.65; rRNA inh HTS OD600: -44; rRNA inh HTS RFP: 30

What do the screens show for `Cc1ccc(Cl)cc1N1CCN(Cc2cc3c(cc2O)CCC3)CC1`?
ALR inh: -6; UCH37 DUB inh: 0.5; Beta2AR agonist: 0; HNF4A DNA FP: 2.1; Ecoli growth: 0.7

How did O=CNC(=O)c1ccccc1C(=O)O do in these assays?
ALR inh: -8; UCH37 DUB inh: 3.9; Beta2AR agonist: 3; HNF4A DNA FP: 1.4; Ecoli growth: 0.73

How did CCCc1nc2ccc(NC(=O)c3ccco3)cc2c(=O)n1Cc1ccc(Cl)cc1 do in these assays?
ALR inh: 1; UCH37 DUB inh: 3.7; Beta2AR agonist: -7; HNF4A DNA FP: 5.2; Ecoli growth: 0.75

What do the screens show for `CN(C)CCCCOc1ccc(Br)cc1Cl`?
ALR inh: -9; UCH37 DUB inh: 1.0; rRNA inh HTS: -3; Beta2AR agonist: -3; HNF4A DNA FP: 2.5; FGF22 binding: inactive; Ecoli growth: 0.68; rRNA inh HTS OD600: -11; rRNA inh HTS RFP: 2.0

How did COc1ccc(S(=O)(=O)N2CCNCC2)cc1OC do in these assays?
ALR inh: -2; UCH37 DUB inh: -2.2; rRNA inh HTS: 10; Beta2AR agonist: 1; HNF4A DNA FP: 3.4; FGF22 binding: inactive; Ecoli growth: 0.69; rRNA inh HTS OD600: 14; rRNA inh HTS RFP: -0.9

What do the screens show for `O=C(Nc1ccccc1N(C(=O)c1ccco1)S(=O)(=O)c1cccs1)c1ccco1`?
ALR inh: 54; UCH37 DUB inh: 3.9; Beta2AR agonist: 7; HNF4A DNA FP: 0.2; Ecoli growth: 0.78

What do the screens show for `Cc1ccc2c(c1)-c1c(cnn1CC(=O)Nc1ccccc1N1CCN(C)CC1)CO2`?
ALR inh: -6; UCH37 DUB inh: 4.2; rRNA inh HTS: 0; Beta2AR agonist: 2; HNF4A DNA FP: 2.0; FGF22 binding: inactive; Ecoli growth: 0.68; rRNA inh HTS OD600: -10; rRNA inh HTS RFP: 1.5

What do the screens show for `O=C(COC(=O)c1ccccc1SCC(=O)N1CCCC1)NC1CCS(=O)(=O)C1` (stereo unspecified)?
ALR inh: -18; UCH37 DUB inh: 0.1; rRNA inh HTS: 2; Beta2AR agonist: 8; HNF4A DNA FP: 1.0; FGF22 binding: inactive; Ecoli growth: 0.68; rRNA inh HTS OD600: 6; rRNA inh HTS RFP: 6.5

What do the screens show for `CCn1c(=S)sc2c(=O)n(CC(=O)Nc3ccccc3)c(C)nc21`?
ALR inh: -2; UCH37 DUB inh: 2.9; rRNA inh HTS: 3; Beta2AR agonist: -2; HNF4A DNA FP: 11; FGF22 binding: inactive; Ecoli growth: 0.67; rRNA inh HTS OD600: 16; rRNA inh HTS RFP: -2.3

Results for C=CCSc1nc2sc(C)c(C)c2c(=O)n1CC=C ?
ALR inh: -6; UCH37 DUB inh: 7.3; Beta2AR agonist: 15; HNF4A DNA FP: -5.3; Ecoli growth: 0.72
